From PubChem
UCH37 DUB inh: inhibitors of human UCH37 deubiquitinase, primary screen, biochemical, Ub-AMC cleavage, fluorescence. Ubiquitin carboxyl-terminal hydrolase isozyme L5 (Homo sapiens), Q9Y5K5. purified proteasome/UCH37. inhibition, % (concentration not given with the values). actives 0.33% (n = 330,000). AID 588478, 2011;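 active = mean of two replicates above 20%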;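 note: 0% = compound-free wells with enzyme and 100% = wells lacking proteasome; stock transfer was 100 nL into about 20 µL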
Target sequence (Q9Y5K5 whole entry, looked up): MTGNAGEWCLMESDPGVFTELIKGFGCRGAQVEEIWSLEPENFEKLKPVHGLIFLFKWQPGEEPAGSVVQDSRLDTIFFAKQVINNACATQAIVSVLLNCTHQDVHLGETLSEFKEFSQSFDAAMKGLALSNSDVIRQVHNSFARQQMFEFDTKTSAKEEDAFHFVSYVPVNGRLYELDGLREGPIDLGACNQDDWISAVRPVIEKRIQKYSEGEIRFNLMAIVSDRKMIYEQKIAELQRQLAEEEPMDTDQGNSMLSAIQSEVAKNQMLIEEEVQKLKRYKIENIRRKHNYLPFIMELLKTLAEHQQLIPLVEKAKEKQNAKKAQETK
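Material: Human UCH37 enzyme supplied as purified proteasome complex | Schedule: 30 min compound-proteasome preincubation then 25 min substrate reaction, room temperature | Detection: AMC fluorescence from Ub-AMC cleavage, excitation 355 nm, emission 460 nm | Benchmarks: Wells without proteasome as full block, compound-free enzyme plus substrate as uninhibited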
HNF4A DNA FP: change in binding of human HNF4A to DNA, primary screen, biochemical, fluorescence polarization, FITC-DNA; Hepatocyte nuclear factor 4-alpha (Homo sapiens), P41235; 1 h; activity change, % at 10 µM; actives 0.3% (n = 360,000); AID 1224865, 2016; in the data active = activity change above about 30%, passing the limit was not always enough;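 note: controls were the assay level and a saturating level of protein; the project sought stronger binding though the title names inhibitors; some compounds called inactive have numbers as strong as hits; positive values seem to mean higher polarization but the record does not say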
Target sequence (P41235 whole entry, looked up): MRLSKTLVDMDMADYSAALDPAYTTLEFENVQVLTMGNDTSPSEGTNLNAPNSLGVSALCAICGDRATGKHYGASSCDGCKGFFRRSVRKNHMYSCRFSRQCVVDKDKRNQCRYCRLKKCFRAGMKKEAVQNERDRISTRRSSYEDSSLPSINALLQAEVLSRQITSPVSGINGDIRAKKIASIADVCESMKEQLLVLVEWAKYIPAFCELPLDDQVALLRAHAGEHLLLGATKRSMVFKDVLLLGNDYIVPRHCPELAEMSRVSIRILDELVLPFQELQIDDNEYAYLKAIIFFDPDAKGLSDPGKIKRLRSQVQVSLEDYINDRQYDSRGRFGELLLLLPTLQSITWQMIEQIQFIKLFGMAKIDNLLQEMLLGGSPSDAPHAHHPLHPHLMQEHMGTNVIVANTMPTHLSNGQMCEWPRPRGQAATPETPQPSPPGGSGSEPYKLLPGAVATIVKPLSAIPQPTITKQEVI
LANA-H2A inh: blockers of LANA interaction with H2A/H2B – biochemical, FP readout, HTS, primary screen | actives 0.6% (n = 320,000) | cell-free LANA-H2A/H2B peptide, fluorescence polarization | Protein LANA1 (Human herpesvirus 8 type P (isolate GK18)), Q9QR71 | inhibition, % (no concentration beside the values); in the data active = inhibition mostly above about 10%, no sharp cut-off; inactive = mostly below about 6.7%;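 note: stock transfer was 7.5 nL into about 10 µL; 0% = median of vehicle wells and 100% = median of positive control wells; one replicate is shown; the record names a cut of 25% in any replicate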
A1 inh: caspase 3/7 activation in MEF A1-2A-BIM cells, primary screen, A1 inhibitor project, cell-based, luminescence, HTS | Caspase-Glo 3/7 luminescence, 3 h; percent of clofoctol response, vehicle zero | caspase activation, % (concentration not given with the values) | actives 0.066% (n = 330,000) | AID 2462, 2010;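 active = over half of replicate activation scores above 10%, or exactly half above 10 with the replicate mean above 10; inconclusive = replicate mean below 10 yet half the replicates above 10; inactive = over half of replicates below 10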;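 note: wells of about 30 µL received 50 nL stock; many hits fall short of the cut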
B2AR ag: beta2AR agonists driving receptor internalization, primary screen, cell-based, FAP fluorogen, flow cytometry; Beta-2 adrenergic receptor (Homo sapiens), P07550; Am2.2-beta2AR cells; reference of the scale not given here; response, % (concentration not given with the values); actives 0.43% (n = 340,000);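 active = response above a set limit, near 3 SD of response in nonfluorescent compounds, cut at about 42% in these data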;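 note: stock transfer was 100 nL into about 11 µL; a reference agonist was the positive control; negative values mostly stem from fluorescent compounds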
E coli growth: E. coli growth inhibition, primary screen, OD600; Escherichia coli growth, 23 h; active compounds read low; OD600 absorbance (no concentration beside the values); actives 0.21% (n = 330,000); AID 1053175, 2014;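 active = OD600 absorbance below the run mean of sample wells minus 3.6 SD, in any replicate, cut at about 0.56 in these data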;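 note: stock transfer was 300 nL into about 60 µL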
Vif TR-FRET: inhibitors of Vif binding to APOBEC3G peptide, primary screen, biochemical, TR-FRET, GST-Vif 1-94, biotin-A3G peptide, dose response retest (AID 1117319); Virion infectivity factor (Human immunodeficiency virus type 1 group M subtype B (isolate …; inhibition, %, or IC50 in µM where a hit was titrated; actives 0.57% (n = 260,000); TR-FRET GST-Vif / biotin-A3G peptide binding; higher % means a stronger effect; test concentration not given here; strong numbers were not always called active;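 active = above the screen mean plus three standard deviations and confirmed in dose response; inconclusive = results disagree or hit not tested in dose response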;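 note: Vif residues 1-94 fused to GST binding biotinylated APOBEC3G peptide 110-148; 0% = full assay without inhibitor and 100% = GST in place of GST-Vif; retest series ran down from 100 µM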
* hit, by the source's call; ? = inconclusive; . = no result given. Outcome played no part in choosing rows, and some 2.1% of all compounds hit somewhere here.

The line under a structure holds: UCH37 DUB inh, HNF4A DNA FP, LANA-H2A inh, A1 inh, B2AR ag, E coli growth, Vif TR-FRET
- COCCNC(=O)c1ccc2c(=O)n(CCCN3CCCC3=O)c(=S)[nH]c2c1
→ 3.9, -8.4, 0.9, 0.4, -2.7, 0.684, -3.4%
- CC(C)CC(=O)Nc1ccc(C(=O)COC(=O)C2CCC2)cc1
→ 2.8, -2.7, -14.7, -0.7, 1.9, 0.648, 0.6%
- O=C(NCc1ccc(F)cc1)C1CCCN1S(=O)(=O)c1ccccc1C(F)(F)F (stereo unspecified)
→ -2.9, -3.5, -2.9, 0.3, -4.7, 0.724, .
- CCC(C(=O)Nc1cccc(OC)c1)n1nc(C)c2c(C)n(-c3ccccc3)nc2c1=O (stereo unspecified)
→ 2.0, 3.0, 4.1, 0.3, -5.2, 0.683, .
- Cc1cccc(C)c1OCc1nnc(SCC(=O)Nc2ccccc2F)o1
→ 6.3, 0.1, -0.5, 0.2, -0.9, 0.762, -3.2%
- COc1ccc(CNC(=O)C(=O)NCC2OCCN2S(=O)(=O)c2cccs2)cc1 (stereo unspecified)
→ 0.6, -0.6, 2.0, -0.6, 7.8, 0.712, -1.7%
- O=C(Cn1ncc2c3ccccc3n(Cc3ccccc3)c2c1=O)N1CCN(c2ncccn2)CC1
→ -22.3, -2.1, 3.8, -0.1, -4.0, 0.72, -8.1%
- Cc1cc(C(=O)COC(=O)c2ccc[nH]c2=O)c(C)n1C1CC1
→ 3.4, -0.5, -4.6, 0.4, 1.2, 0.681, 13.0%
- CCOc1ccc(CCNC(=O)CSc2nc3ncc(Cl)cc3[nH]2)cc1OCC
→ 0.3, -3.5, 0.4, -0.2, -3.8, 0.646, .
- CSc1ccccc1NC(=O)CN(c1ccccc1)S(=O)(=O)N(C)C
→ 4.0, -0.5, 3.3, 0.4, 4.1, 0.658, 2.1%
- Nc1ncnc(Nc2ccc(F)cc2)n1
→ 2.9, -4.1, ., -0.6, -3.6, 0.686, 2.6%
- CC1CCN(S(=O)(=O)c2cccc(-c3nnc(-c4cccnc4)o3)c2)CC1
→ 0.7, -1.4, -2.8, 0.9, -5.5, 0.669, -1.3%
- CC(=O)N1N=C(c2ccc(C)cc2)OC1c1ccc(C(C)C)cc1 (stereo unspecified)
→ 3.1, 1.9, -4.7, 0.5, -1.2, 0.692, 4.5%
- CCOC(=O)c1cnc(-n2nc(C)cc2C)nc1NCc1ccc2c(c1)OCO2
→ -0.5, 3.5, 1.6, -0.9, -19.8, 0.679, -2.2%
- COc1ccc(-c2nc3ncnn3cc2C)cc1F
→ -112.6, -0.7, 4.4, 0.1, 1.5, 0.642, 2.6%
- CCOc1ccc(N(CC)C(=O)COc2cc(=O)n(C)c3ccccc23)cc1
→ 2.0, 1.0, 1.7, -1.1, 7.2, 0.672, -2.3%
- Cc1ccc(S(=O)(=O)NCc2ccc3[nH]c(C)cc3c2)cc1
→ 2.7, 3.6, -0.4, 0.5, 16.1, 0.66, 4.5%
- COc1cc(NC(=O)COC(=O)/C=C/c2ccccc2Cl)cc(OC)c1
→ 3.6, -0.1, -3.6, 0.6, -2.3, 0.689, -8.0%
- O=C(C(=O)N1CCN(c2cccc(Cl)c2)CC1)c1c[nH]c2ccccc12
→ -0.1, -3.8, -1.8, 0.3, 7.0, 0.645, -3.1%
- Cc1ccc(C(=O)Cn2c(NCCO)nc3ccccc32)cc1
→ 2.2, 2.2, -2.2, -0.2, 7.2, 0.748, -0.3%
- CN1C(C(=O)Nc2ccc(F)cc2F)=CC(c2ccco2)=NS1(=O)=O
→ 9.0, 0.5, -7.5, -0.3, -3.7, 0.717, -2.2%
- Nc1c(N(CCO)C(=O)COc2ccc(Cl)cc2)c(=O)[nH]c(=O)n1Cc1ccccc1
→ 0.8, -2.8, -3.2, 0.3, -2.5, 0.657, 1.7%
- CCOc1ccccc1OCCOCCOc1ccccc1[N+](=O)[O-]
→ -0.2, -0.1, -7.8, 0.6, 0.3, 0.717, 0.4%
- Clc1ccc(CCNc2nc3ccccc3s2)cc1
→ -0.1, 1.4, 3.0, 0.5, -7.9, 0.712, 4.4%
- COC(=O)CCN(c1ccccc1)S(=O)(=O)c1ccc(OC)cc1
→ -1.0, -2.5, 1.3, 0.0, 0.8, 0.764, ?
- COc1ccccc1C(=O)NC(=S)NNC(=O)c1sc2ccccc2c1Cl
→ -9.5, -4.1, 4.6, 1.1, 3.9, 0.652, 22.1%
- COc1ccccc1C(=O)n1nc(-c2ccccc2)nc1N
→ 0.8, -1.5, 0.5, -0.2, -0.2, 0.727, 4.4%
- O=C(c1cccc2ccccc12)N1CCN(Cc2ccccc2F)CC1
→ 5.8, 2.2, 4.0, -9.6, -0.9, 0.651, 2.5%
- CC(C)CC(=O)NC(=S)Nc1ccc(N2CCOCC2)cc1
→ 6.7, 2.1, 0.6, -0.4, -45.3, 0.731, 2.6%
- Cc1ccccc1CSCC(=O)c1c(N)n(CC(C)C)c(=O)n(C)c1=O
→ 1.2, -1.2, -2.6, 0.1, 5.3, 0.775, 7.2%
- Cc1nc([N+](=O)[O-])c(Br)n1CC(=O)c1ccc(Br)cc1
→ 4.1, -0.1, -1.6, 0.0, 19.4, 0.715, 2.9%
- CCOc1ccc(NC(=O)CSCC(=O)O)cc1
→ -0.9, -3.5, -9.0, 0.1, 0.8, 0.731, 1.9%
- CCOC(=O)C1=C(CS(=O)(=O)c2ccc(Cl)cc2)NC(=O)NC1c1ccc(O)c(OC)c1 (stereo unspecified)
→ 1.0, -5.1, 4.7, 0.9, 1.3, 0.677, ?
- CC(C)Cn1cc(C(=O)N2CCC(C)CC2)c2c3ccccc3n(C)c2c1=O
→ -114.9, -1.1, -3.4, 1.3, -1.2, 0.64, -5.5%
- COC(=O)Cn1c(=O)c(C(=O)CCl)c(N)n(Cc2ccccc2)c1=O
→ 4.0, 1.3, 3.8, 1.1, 9.9, 0.694, -0.6%
- CCOC(=O)c1cc(CC)sc1NC(=O)CCC(=O)O
→ 0.8, -1.4, -0.2, 0.1, 7.3, 0.773, -2.2%
- CC1CN(CCOc2ccc(Cl)cc2Cl)CC(C)O1 (stereo unspecified)
→ 1.4, 1.5, 0.5, 0.6, -9.2, 0.7, -5.3%
- Cc1cc(C(=O)N2CCC(C)CC2)on1
→ 0.4, -0.2, 0.1, 1.2, 10.8, 0.709, -1.3%
- CC1CCc2sc(C(=O)N=Nc3c(O)[nH]c4ccccc34)cc2C1 (stereo unspecified)
→ 2.9, ., -1.5, -1.8, ., 0.707, .
- CC(OC(=O)C1CC1)C(=O)Nc1ccc([N+](=O)[O-])cc1Cl (stereo unspecified)
→ 3.8, -3.7, 1.3, -0.7, -0.2, 0.718, .
- N/C(=N\OC(=O)c1cccc(Br)c1)c1ccccc1
→ 3.7, -2.0, 1.3, 0.9, -7.8, 0.721, 3.2%
- O=C(NCc1ccc(Cl)cc1)c1cc(=O)[nH]c2ccccc12
→ -25.7, 2.7, 0.1, -0.3, 5.9, 0.72, .
- COc1ccc(N2C(=O)CC(N3CCN(c4ccc(S(=O)(=O)N5CCCC5)cc4)CC3)C2=O)cc1 (stereo unspecified)
→ 3.6, -0.1, 1.4, -0.4, 2.8, 0.747, ?
- CCOC(=O)C1=C(C)NC2=C(C(=O)CCC2)C1c1cccs1 (stereo unspecified)
→ -26.7, 2.8, -2.3, 0.8, -0.3, 0.703, 8.3%
- c1ccc(-c2nc3nc4ccccc4nc3n2CC2CCCO2)cc1 (stereo unspecified)
→ -374.4, -1.5, -3.6, 0.0, 5.2, 0.68, -4.5%
- O=C(NCc1ccncc1)C1CCN(S(=O)(=O)c2cccc(C(F)(F)F)c2)CC1
→ 0.2, 5.8, ., ., -0.2, 0.688, -5.6%
- COc1cc(-n2c(=O)c3ccccc3n(Cc3cccc(C)c3)c2=O)cc(OC)c1OC
→ 1.1, -0.7, 5.3, -0.6, 4.3, 0.699, -2.2%
- O=C(COC(=O)COc1ccc(Br)cc1)NC1CCCC1
→ 2.3, -0.5, -1.8, 0.7, -2.8, 0.712, -7.6%
- Cc1cccc(N2C(=O)CC(SC(N)=Nc3ccccc3)C2=O)c1 (stereo unspecified)
→ 0.7, 1.5, -7.3, 1.4, -4.6, 0.708, -1.9%
- COc1ccc(CN=Cc2c(C(F)(F)F)[nH][nH]c2=O)cc1
→ 5.3, 0.6, 2.6, -0.8, 13.6, 0.729, ?

Next compounds
The line under a structure holds: UCH37 DUB inh, HNF4A DNA FP, LANA-H2A inh, A1 inh, B2AR ag, E coli growth, Vif TR-FRET
- COc1cccc(NC(=O)CCC2CCN(C(=O)c3cncs3)CC2)c1
→ 1.2, 2.8, 6.7, -1.0, -0.8, 0.73, 5.3%
- FC(F)(F)c1cccc(Cc2noc(CN3CCCC(CN4CCCC4)C3)n2)c1 (stereo unspecified)
→ 4.2, 2.2, -4.4, -0.1, -2.0, 0.694, 2.8%
- Clc1ccc(CSc2nnc3ccccn23)c(Cl)c1
→ 4.0, 3.0, 1.5, -0.5, -0.4, 0.629, 15.8%
- O=C(Cc1ccccc1)Nc1nc(-c2ccc(F)c(F)c2)cs1
→ -0.5, -1.0, -2.4, 0.4, 1.3, 0.7, .
- COc1cnn(-c2ccc(F)cc2)c(=O)c1Br
→ 0.4, 0.7, 0.5, 0.7, 2.3, 0.663, 9.5%
- CCc1ccccc1N(CC(=O)NCc1ccccc1)C(=O)CCC(=O)Nc1ccccn1
→ 5.1, 1.3, 1.8, 0.3, -4.9, 0.689, .
- O=C(Nc1ccc(S(=O)(=O)Nc2ncccn2)cc1)c1cccnc1
→ 2.8, -7.6, -5.4, -0.5, 1.2, 0.718, ?
- Cn1c(N2CCN(c3ccccn3)CC2)nc2c1c(=O)n(Cc1ccccc1Cl)c(=O)n2C
→ 2.9, 1.1, -1.3, 0.8, -8.8, 0.775, -4.2%
- CCCCOc1ccc(N(CC(=O)NC(C)(C)CC)C(=O)CCC(=O)Nc2ccccn2)cc1
→ 2.1, 4.7, -7.5, 0.2, 2.5, 0.713, .
- CC(C)(C)C1N=C(c2ccc3ccccc3c2)OC1=O (stereo unspecified)
→ 2.9, -0.7, 0.1, -0.1, -1.7, 0.663, .
- O=C(O)c1cc(Cl)ccc1OS(=O)(=O)c1ccc(Cl)s1
→ 1.8, -1.7, -2.4, -0.1, -3.5, 0.689, -8.3%
- CC12CCC3C(CCC4N(CCO)CCC34C)C1CCC2O (stereo unspecified)
→ 3.7, -0.8, -5.7, 2.0, -0.7, 0.705, -1.4%
- Cc1ccc(N2CS(=O)(=O)/C(=C/N(C)C)C2=O)cc1
→ 1.5, -1.4, 1.3, -2.5, 1.8, 0.671, -5.8%
